D2 PAM – positive allosteric modulators of human D2 dopamine receptor; potentiation, % (no concentration beside the values); P14416; DiscoveRx D2 beta-arrestin cells, luminescence, 90 min; 100% = 57 uM dopamine signal; actives 0.23% (n = 360,000); AID 624464; active = potentiation of 50% or more; inconclusive = 30% to 50%; inactive = 30% or less;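 note: compound concentration not given in the record; tested on top of an EC20 dose of dopamine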
Target sequence (P14416 whole entry, looked up): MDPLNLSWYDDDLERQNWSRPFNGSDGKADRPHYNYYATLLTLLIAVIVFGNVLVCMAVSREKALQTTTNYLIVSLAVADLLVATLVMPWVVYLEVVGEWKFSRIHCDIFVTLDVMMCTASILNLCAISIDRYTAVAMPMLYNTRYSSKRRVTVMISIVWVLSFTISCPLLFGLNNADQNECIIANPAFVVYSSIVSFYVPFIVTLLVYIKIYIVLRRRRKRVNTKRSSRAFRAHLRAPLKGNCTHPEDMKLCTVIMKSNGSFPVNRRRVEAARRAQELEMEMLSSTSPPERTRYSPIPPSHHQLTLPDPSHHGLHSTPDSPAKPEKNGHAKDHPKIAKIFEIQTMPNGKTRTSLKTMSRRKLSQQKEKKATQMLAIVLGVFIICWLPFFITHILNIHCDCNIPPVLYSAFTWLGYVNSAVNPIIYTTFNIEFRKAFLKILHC
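D2 cells co-treated with compound plus 50 nM dopamine (EC20) for 90 min at 37 deg C to detect potentiation. Beta-arrestin recruitment was read as enzyme-fragment luminescence after 1 h at ambient temperature. Full response was set by 57 uM dopamine.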
TRPV1 potentiator – potentiators of human vanilloid receptor 1 (TRPV1); TRPV1-expressing cells, Fluo-8 calcium influx, capsaicin EC20 potentiation; host cell line not named in the record; control for the full effect not named in the record; potentiation, % at 8.33 µM; actives 0.02% (n = 320,000); AID 540277; active means potentiation above 80%; inconclusive means 30% to 80%; inactive means below 30%; note: 0% is about no effect
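TRPV1-expressing cells were cultured overnight at 35.5C and loaded with Fluo-8 calcium dye for 40 to 90 min at room temperature. After a 10 s baseline, compound was added and calcium influx was read kinetically for 3 min (ex 480/em 520 nm).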
gsp agonist – activates gsp, the McCune-Albright syndrome mutation; gsp mutant cells, cAMP HTRF, 30 min; control for the full effect not named in the record; Potency, µM (top dose mostly 76.9 µM), inactives show at the highest dose activation (cAMP increase), actives largely listed as activators; actives 0.13% (n = 340,000); active = well fitted activation curve with a large enough effect; inconclusive = small, poorly fitted or top-dose-only effect, or another doubt; inactive = no such curve, though single readings can be large or run the other way; cell line not stated here;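 note: phosphodiesterase inhibitor Ro 20-1724 added with compounds to block cAMP breakdown; potency is the fitted concentration of half-maximal effect; nearly all actives have a fitted effect of over 60% in size; about a fifth of the inactives were tested at one dose only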
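Cells stably selected in G418 were plated at 2000/well, grown 16-24 hr, then given compounds in DMSO with the PDE inhibitor […] (300 uM solution added) for 30 min at 37C; cAMP was read by HTRF.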
Menin MLL FP FL – inhibitors of human menin-MLL interaction, wild-type MLL peptide; Fluorescence polarization, fluorescein-MLL peptide displacement from menin; FP activity change, % at 61.4 µM; 290,000 tested, under 10 active; AID 1766; inconclusive = falling polarisation curve, or a change in total fluorescence; inactive = total fluorescence flat and polarisation flat or rising; no compound was filed as active; the % refers to the polarisation; negative = inhibition;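 note: % of control where 0% means no effect; inhibitors lower the polarisation; unlabelled MLL peptide was the positive control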
ClpP mod – qHTS Assay for Activators of ClpP; Potency, µM (series often up to 57.5 µM), for inactives: at the highest dose activity change, negative = active; ATP-dependent Clp protease proteolytic subunit (Bacillus subtilis (strain 168)), P80244; purified B. subtilis ClpP, FRET peptide cleavage, 20 min; actives 1.9% (n = 340,000); AID 651965, 2013; active = well fitted falling curve with a large enough effect; inconclusive = small, poorly fitted or top-dose-only effect; inactive = no such curve, though single readings can be large or run the other way; note: potency is the fitted concentration of half-maximal effect; the source files actives as falling curves though it sought activators and does not explain the sign; nearly all actives have a fitted effect of over 65% in size; many hits overshoot -100%
Target sequence (P80244 whole entry, looked up): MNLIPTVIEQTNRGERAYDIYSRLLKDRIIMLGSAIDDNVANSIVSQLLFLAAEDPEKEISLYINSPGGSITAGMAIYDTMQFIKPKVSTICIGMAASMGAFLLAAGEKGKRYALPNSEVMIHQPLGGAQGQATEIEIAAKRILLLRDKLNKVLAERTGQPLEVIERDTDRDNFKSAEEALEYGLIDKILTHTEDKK
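Buffer: 100 mM Tris/HCl pH8, 100 mM KCl, 0.05% low protease BSA, 2.5% glycerol, 0.01% Tween-20. ClpP 10 microg/mL final; 20 min RT; delta FRET normalized to ADEP and DMSO controls.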
gsp antagonist – gsp mutant antagonism. gsp-mutant cells, cAMP HTRF, 30 min; control for the full effect not named in the record. Potency, µM (titrated, usually from 76.9 µM), without a hit: at the top dose activity change, negative = inhibition, usual class: inhibitors. actives 0.4% (n = 340,000). AID 624288; active = falling curve of any shape with a large fitted effect; inconclusive = falling curve, mostly with a smaller effect; inactive = flat or rising curve; cell line not stated here;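 note: intracellular cAMP measured with PDE inhibitor Ro 20-1724 present during compound exposure; potency is the fitted concentration of half-maximal effect; % is set by controls: 0 for no effect and ±100 for the full control effect; nearly all actives have a fitted effect of over 65% in size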
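HTRF cAMP read-out (cAMP-d2 plus anti-cAMP antibody-K in lysis buffer, 30 min RT). Before lysis, cells are exposed to compounds with […] for 30 min at 37C in DPBS containing Ca/Mg, BSA and Tween 20.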
Sfp PPTase inh – Sfp phosphopantetheinyl transferase inhibition; actives 3.5% (n = 310,000); Biochemical Sfp PPTase activity, qHTS; Q9F4F7; Potency, µM, for the others: max response, negative = inhibition, hits mostly inhibitors; active = well fitted inhibition curve with a large enough effect; inconclusive = small, poorly fitted or top-dose-only effect, or another doubt; inactive = no such curve, though single readings can be large or run the other way;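 note: the enzyme is Sfp with the accession as filed and its product quenches rhodamine fluorescence; potency is the fitted concentration of half-maximal effect; 0% = enzyme reaction without inhibitor and -100% = no enzyme wells; top concentration of the series not given in the record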
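Fluorescence-quenching assay with 15 nM Sfp, 5 uM rhodamine-CoA and 12.5 uM BHQ-2-labelled ybbR peptide in pH 7.6 Hepes/MgCl2 buffer. Enzyme was pre-incubated with compound for 15 min at room temperature. Rate was taken from the 30-min fluorescence change (525/598 nm).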
* hit, by the source's call; ? = inconclusive; / = not tested or not shown; & = joins results of further samples; [ ] = remark or other dose.

Screens in order: D2 PAM	gsp agonist	Menin MLL FP FL	TRPV1 potentiator	Sfp PPTase inh	ClpP mod	gsp antagonist
(1) CCc1ccc(NS(=O)(=O)c2ccc3[nH]cc(C(=O)N(C)Cc4ccco4)c(=O)c3c2)cc1
 : 0	-13%	2.8	3	3%	-28%&-5.2%	-7%
(2) Brc1cnc2ccccc2c1N1CCCCC1
 : -1	-12%	/	/	/	1.2%	-28%
(3) Cn1nnnc1SCC1=C(C(=O)O)N2C(=O)C(NC(=O)Cn3nc(C(F)F)cc3C3CC3)C2SC1 (stereo not given)
 : -1	-16%	5.5	6	-19%	0.2%	4%
(4) CCc1ccc(NC(=O)C2CC(=O)Nc3ncnn32)cc1 (stereo not given)
 : -9	3%	-2.5	-11	-9%	-7.2%	8%
(5) COc1ccc(NC(=S)N(CCc2c(C)[nH]c3ccc(C)cc23)Cc2cccs2)cc1
 : -7	3%	3.8	20	0%	-0.1%	-16%
(6) C=CCc1c(C)nc(SC)nc1Nc1ccc(C)cc1
 : -6	15%	-1.3	-13	-1%	-11%	?
(7) Nc1nc(-c2ccc3ccccc3c2)cs1
 : -8	-4%[15.4 µM]	-4.8	18	0%	?	-8%
(8) O=C(Nc1ccc(S(=O)(=O)Nc2ncccn2)cc1)c1ccc(Br)o1
 : -9	5%	4.2	-7	-14%	-0.6%	0%
(9) O=C(COc1c(Br)cc(Br)c2cccnc12)N1CCCCC1
 : 2	6.3µM*	-3.9	-9	-1%	-4.0%	-4%
(10) CCOC(=O)c1sc(-c2ccc(Cl)cc2Cl)nc1O
 : -1	53%	11	15	22%	/	-7%
(11) C=CCNC(=O)C1CCCN(S(C)(=O)=O)C1 (stereo not given)
 : -9	3%	-5.8	9	18%	-1.5%	5%
(12) CCOc1ccccc1C(=O)N(CCC(=O)OC)c1ccccn1
 : -16	-11%	-0.5	-17	17%	-0.4%	8%
(13) Cc1onc(-c2ccccc2Cl)c1C(=O)Nc1ccc(S(=O)(=O)Nc2nccs2)cc1
 : 4	-16%[15.4 µM]	-2.1	16	7%	/	-10%
(14) CCNC(=O)CSc1nnc(C2CC2)n1-c1ccccc1
 : -6	2%	2.9	-4	6%	-6.2%	9%
(15) COC(=O)c1cc(Br)c(=O)n(-c2ccccn2)c1
 : 0	0%	-1.2	1	21%	-16%	-10%
(16) CC(C)c1ccc(NC(=O)CSc2n[nH]c(=O)n2Cc2ccco2)cc1
 : -4	26%	-1.0	2	19%	0.5%	6%
(17) COc1ccc(C(=O)OC(C)CN2CCN(C)CC2)cc1 (stereo not given)
 : 1	-8%[15.4 µM]	0.0	-4	-10%	-18%	-13%
(18) O=C(N1CCOCC1)N1CCN(S(=O)(=O)c2cccc([N+](=O)[O-])c2)CC1
 : -24	18%	-2.6	-9	-10%	-3.5%	12%
(19) CC1CCC(NC(=O)CN(C)CC(=O)Nc2ccc(F)cc2)CC1 (stereo not given)
 : -12	3%	/	1	/	1.5%	2%
(20) CC(=O)OC1c2ccccc2C(=O)N1Cc1ccccc1Cl (stereo not given)
 : -5	-7%	4.5	15	9%	-0.8%	-8%

12 neighbouring records from above, quoted:
Screens in order: D2 PAM	gsp agonist	Menin MLL FP FL	TRPV1 potentiator	Sfp PPTase inh	ClpP mod	gsp antagonist
(9) O=C(COc1c(Br)cc(Br)c2cccnc12)N1CCCCC1
 : 2	6.3µM*	-3.9	-9	-1%	-4.0%	-4%
(10) CCOC(=O)c1sc(-c2ccc(Cl)cc2Cl)nc1O
 : -1	53%	11	15	22%	/	-7%
(11) C=CCNC(=O)C1CCCN(S(C)(=O)=O)C1 (stereo not given)
 : -9	3%	-5.8	9	18%	-1.5%	5%
(12) CCOc1ccccc1C(=O)N(CCC(=O)OC)c1ccccn1
 : -16	-11%	-0.5	-17	17%	-0.4%	8%
(13) Cc1onc(-c2ccccc2Cl)c1C(=O)Nc1ccc(S(=O)(=O)Nc2nccs2)cc1
 : 4	-16%[15.4 µM]	-2.1	16	7%	/	-10%
(14) CCNC(=O)CSc1nnc(C2CC2)n1-c1ccccc1
 : -6	2%	2.9	-4	6%	-6.2%	9%
(15) COC(=O)c1cc(Br)c(=O)n(-c2ccccn2)c1
 : 0	0%	-1.2	1	21%	-16%	-10%
(16) CC(C)c1ccc(NC(=O)CSc2n[nH]c(=O)n2Cc2ccco2)cc1
 : -4	26%	-1.0	2	19%	0.5%	6%
(17) COc1ccc(C(=O)OC(C)CN2CCN(C)CC2)cc1 (stereo not given)
 : 1	-8%[15.4 µM]	0.0	-4	-10%	-18%	-13%
(18) O=C(N1CCOCC1)N1CCN(S(=O)(=O)c2cccc([N+](=O)[O-])c2)CC1
 : -24	18%	-2.6	-9	-10%	-3.5%	12%
(19) CC1CCC(NC(=O)CN(C)CC(=O)Nc2ccc(F)cc2)CC1 (stereo not given)
 : -12	3%	/	1	/	1.5%	2%
(20) CC(=O)OC1c2ccccc2C(=O)N1Cc1ccccc1Cl (stereo not given)
 : -5	-7%	4.5	15	9%	-0.8%	-8%

Returning to the listing, repeating the 2 entries before the break.
Screens in order: D2 PAM	gsp agonist	Menin MLL FP FL	TRPV1 potentiator	Sfp PPTase inh	ClpP mod	gsp antagonist
(19) CC1CCC(NC(=O)CN(C)CC(=O)Nc2ccc(F)cc2)CC1 (stereo not given)
 : -12	3%	/	1	/	1.5%	2%
(20) CC(=O)OC1c2ccccc2C(=O)N1Cc1ccccc1Cl (stereo not given)
 : -5	-7%	4.5	15	9%	-0.8%	-8%
(21) COc1cc(OC)cc(C(=O)Nc2ccc(C(=O)Nc3ccccc3OC)cc2)c1
 : 9	15%	/	/	/	/	?
(22) COc1ccccc1NC(=O)Nc1cc(C(C)C)ccc1C
 : 3	?	4.1	5	15%	/	4%
(23) CN1C(=O)CC(N2CCN(CCN=CC3=C(O)CC(C)(C)CC3=O)CC2)C1=O (stereo not given)
 : 3	-58%[inhibitor]	-2.2	2	7%	-3.1%	-10%
(24) COCCCNC(=O)c1cc(C)nc2ccc(F)cc12
 : -4	8%	-0.9	26	-6%	-11%	-9%
(25) CCc1cccc(CN2CCC(CNC(=O)Nc3ccc(Cl)cc3)CC2)c1
 : -21	11%	-3.4	1	18%	1.2%	1%
(26) CCOCC(=O)Nc1cccc(Br)c1
 : -16	-24%	-2.1	-5	-10%	0.6%	9%[15.4 µM]
(27) Cc1ccc(C(=O)Nn2cnnc2)cc1
 : -2	-18%	-3.1	-18	9%	0.7%	-1%
(28) COC(=O)c1ccc(C)c(NC(=O)Cn2c(C)csc2=O)c1
 : -1	1%	/	/	/	-0.4%	7%
(29) O=C(OC(C(=O)Nc1ccc([N+](=O)[O-])cc1Br)c1ccccc1)c1ccccc1 (stereo not given)
 : 1	9%[15.4 µM]	1.7	13	5%	0.4%	-8%
(30) CCc1ccc(/C=c2\s/c(=C\C(=O)C(C)(C)C)[nH]c2=O)cc1
 : -14	?	2.1	6	-12%	1.5%	-38%
(31) COc1ccc(OC)c(S(=O)(=O)N2CCN(c3c(C)cccc3C)CC2)c1
 : -6	-64%[inhibitor]	-2.6	25	-2%	-1.4%	-6%
(32) C=CCN(C(=O)C1CSC2(C)CCC(=O)N12)c1nc(-c2ccccc2)cs1 (stereo not given)
 : -5	22%	/	25	/	-1.7%	-18%
(33) Cc1c(C)c2ccc(OCC(=O)Nc3ccccc3C(N)=O)cc2oc1=O
 : 10	/	1.3	4	13%	-3.0%	2%
(34) COC(=O)c1cccc(COC(=O)c2cccnc2SC)c1
 : -4	?	-1.3	20	-8%	-1.8%	-1%
(35) CCOC(=O)c1cnc2c(ccc3ccccc32)c1N
 : -17	-26%	-3.9	7	2%	-28%	4%

Screens deposited in PubChem BioAssay by National Center for Advancing Translational Sciences (NCATS).
